Cruzain inh Det: cruzain (T. cruzi) inhibition with detergent; Potency, µM, for the others: max response, negative = inhibition, actives largely listed as inhibitors; purified cruzain, Z-FR-AMC fluorescence, 0.01% Triton; hit rate 0.43% among 200,000; P25779; active = well fitted curve in the direction sought with a large enough effect; inconclusive = small, poorly fitted or top-dose-only effect, or another doubt; inactive = no such curve, though single readings can be large; an effect the other way counts as inactive or inconclusive;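 also: plate controls were neutral wells for no effect and buffer without enzyme for full effect; nearly all actives have a fitted effect of over 40% in size; top concentration of the series not given in the record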
Target sequence (P25779 123-467 limits assumed): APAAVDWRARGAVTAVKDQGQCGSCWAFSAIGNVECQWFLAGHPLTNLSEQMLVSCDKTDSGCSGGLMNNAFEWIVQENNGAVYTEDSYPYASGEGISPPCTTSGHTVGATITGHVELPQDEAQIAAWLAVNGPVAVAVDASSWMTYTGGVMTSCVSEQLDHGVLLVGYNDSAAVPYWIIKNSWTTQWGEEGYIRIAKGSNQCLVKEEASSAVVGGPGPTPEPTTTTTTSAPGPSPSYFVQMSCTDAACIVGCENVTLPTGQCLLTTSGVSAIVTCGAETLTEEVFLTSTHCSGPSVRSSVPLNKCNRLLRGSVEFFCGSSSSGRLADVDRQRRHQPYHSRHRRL
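Read-out: AMC fluorescence (360 nm excitation, 450 nm emission), four reads over 2 min, first-to-third difference used. Conditions: cruzain 1.5 nM, Z-FR-AMC 2 uM, pH 5.5 acetate, 5 mM DTT, 0.01% Triton X-100.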
Cruzain noTriton: blocks cruzain activity in detergent-free assay | purified cruzain, Z-FR-AMC fluorescence, no detergent | Potency, µM, inactives show max response, negative = inhibition, hits mostly inhibitors | P25779 | hit rate 2.3% among 200,000 | AID 1476; active = well fitted curve in the direction sought with a large enough effect; inconclusive = small, poorly fitted or top-dose-only effect, or another doubt; inactive = no such curve, though single readings can be large; an effect the other way counts as inactive or inconclusive;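 also: plate controls were enzyme without inhibitor for no effect and buffer without enzyme for full effect; nearly all actives have a fitted effect of over 40% in size; top concentration of the series not given in the record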
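Purified cruzain at 1.5 nM, pre-incubated 15 min with compound at room temperature in 100 mM sodium acetate pH 5.5, 5 mM DTT, 0.00005% Triton X-100. Reaction started with 2 uM Z-FR-AMC; AMC fluorescence increase over 60 s gives rate.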
NS1 function inh: blocks influenza NS1 protein function; S. cerevisiae slowed by influenza A NS1, growth recovery by OD600; Potency, µM (highest dose often 46.1 µM), inactives show top-dose activity, positive = more growth; hit rate 0.4% among 270,000; AID 2326; also: actives are rising curves; nearly all actives have a fitted effect of over 50% in size
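Recovery from NS1-induced slow growth read by OD600 in budding yeast switched to galactose assay medium (pH 6.0, -URA) at 1:100 dilution. Compound 23 nl per well; the matching strain lacking NS1 serves as control.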
SARS PLpro yeast: blocks SARS-CoV papain-like protease in a yeast assay; Potency, µM (doses to about 32.9 µM), inactives show top-dose activity, positive = growth rescue; hit rate 0.19% among 330,000; S. cerevisiae expressing SARS-CoV PLpro, growth rescue; control for the full effect not named in the record; also: 0% is about no effect; nearly all actives have a fitted effect of over 55% in size; growth read by luminescence after 48 h
LASV entry inh: blocks Lassa virus binding to or entry into cells | Potency, µM (top dose mostly 37.9 µM), inactives show at the highest dose activity change, negative = inhibition, usual class: inhibitors | AID 540256 | hit rate 1.2% among 300,000 | Lassa virus pseudotype entry inhibition, cell reporter; control for the full effect not named in the record; active means well fitted inhibition curve with a large enough effect; inconclusive means small, poorly fitted or top-dose-only effect, or effect the other way; inactive means flat fitted curve, though single readings scatter; tested in HEK293 cells; also: % is scaled to controls: 0 for no effect and ±100 for the full control effect; nearly all actives have a fitted effect of over 50% in size; luciferase read-out
Marburg entry inh: Marburg virus entry inhibition | Marburg virus pseudotyped entry inhibition, cell reporter; control for the full effect not named in the record; about a third of the inactives were read at about 46 µM | Potency, µM (highest dose often 37.8 µM), for the others: top-dose activity change, negative = inhibition, actives largely listed as inhibitors | hit rate 1.8% among 300,000 | AID 540276; active = well fitted inhibition curve with a large enough effect; inconclusive = small, poorly fitted or top-dose-only effect, or effect the other way; inactive = flat fitted curve, though single readings scatter; tested in HEK293 cells; about a fifth of its hits are not listed in these tables; also: % is scaled to controls: 0 for no effect and ±100 for the full control effect; luciferase read-out
StopGo reporter: FMDV 2A StopGo reporter, luciferase signal; human cells with a luciferase reporter of 2A StopGo recoding; control for the full effect not named in the record; Potency, µM (series often up to 57.9 µM), inactives show at the top dose signal change, negative = less light; hit rate 1.2% among 410,000; active = well fitted falling curve with a large enough effect; inconclusive = small, poorly fitted or top-dose-only effect; inactive = no such curve, though single readings can be large or run the other way; tested in HEK293T cells; also: % is scaled to controls: 0 for no effect and ±100 for the full control effect; nearly all actives have a fitted effect of over 45% in size; luciferase light after 4 h
RE007 growth inh: less growth of the S. pombe RE007 Vpr strain; hit rate 0.21% among 360,000; Potency, µM (top dose mostly 92.2 µM), without a hit: at the top dose activity change, negative = less growth; AID 651644; S. pombe RE007 Vpr strain, BacTiter-Glo ATP luminescence, 24 h; control for the full effect not named in the record; active = well fitted falling curve with a large enough effect; inconclusive = small, poorly fitted or top-dose-only effect; inactive = no such curve, though single readings can be large or run the other way;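 also: % is scaled to controls: 0 for no effect and ±100 for the full control effect; nearly all actives have a fitted effect of over 50% in size; the assay follows cell death caused by Vpr and the record does not say whether a fall means rescue or toxicity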
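Fission yeast strain RE007, carrying one chromosomally integrated HIV-1 vpr copy, was seeded at OD 0.01 in PMG+AL medium with 23 nL pinned compound. After 24 h at 30 °C and 99% humidity, viability was read by BacTiter-Glo luminescence.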
* = called active by the depositor; ? = inconclusive; . = no result given; & = joins results of further samples; [ ] = remark or other dose. Unless noted, calls follow the shape of the dose curve; as a rule, active means well fitted rising curve with a large enough effect; inconclusive means small, poorly fitted or top-dose-only effect; inactive means no such curve, though single readings can be large or run the other way. Potency is read from the fitted curve at half-maximal effect.

(1) Cc1c(NC(=O)C(C)OC(=O)c2nc(Cl)ccc2Cl)c(=O)n(-c2ccccc2)n1C (stereo not drawn)
(2) CCOC(=O)c1c(C)[nH]c(C(=O)N2CCN(C(=O)OCC)CC2)c1C
(3) O=C1CC(=C(c2ccccc2)c2ccccc2)C(=O)N1CCCCN1CCN(c2ccccc2)CC1
(4) Cc1cc(NC(=O)Cn2nc(C)c([N+](=O)[O-])c2C)no1
(5) COc1ccc(C2=NS(=O)(=O)N(C)C(C(=O)NCc3ccc4c(c3)OCO4)=C2)cc1OC
(6) CCCN1CCN(CCCNC(=O)Cn2ncc3c4ccccc4n(C)c3c2=O)CC1

screen / no.	1	2	3	4	5	6
Cruzain inh Det	.	.	2.4%	.	.	-5.7%
Cruzain noTriton	.	.	?	.	.	1%
NS1 function inh	15%	19%	2%	-1%	5%	-1%
SARS PLpro yeast	0%	1%	-3%	0%	-5%	14%
LASV entry inh	1%	?	?	.	.	.
Marburg entry inh	-18%	6%[46.1 µM]	?	.	.	.
StopGo reporter	-23%	-9%	-24%	-14%	-19%	-18%
RE007 growth inh	-15%	9%	-12%	-7%	-3%	0%

(7) COc1cccc2cc(C(=O)NNC(=O)c3ccc(Br)cc3)c(=O)oc12
(8) COc1ccc(OC)c(N=c2oc3c(OC)cccc3cc2C(=O)NCc2ccco2)c1
(9) COC(=O)c1ccc(C)c(NC(=O)CN(c2ccccc2)S(=O)(=O)N(C)C)c1
(10) CS(=O)(=O)N(CC(=O)Nc1ccccc1-c1ccccc1)c1ccccc1
(11) O=C(Nc1ccccc1O)N1c2ccccc2Sc2ccccc21
(12) CC(=O)N1CCc2cc(S(=O)(=O)CCC(=O)N(C)Cc3ccco3)ccc21

screen / no.	7	8	9	10	11	12
Cruzain inh Det	.	1.2%	.	.	.	.
Cruzain noTriton	.	-4%	.	.	.	.
NS1 function inh	.	4%	0%	.	-24%	-8%
SARS PLpro yeast	-1%	2%	0%	1%	0%	6%
LASV entry inh	14%	-1%	-8%	.	.	.
Marburg entry inh	?	-10%	-9%[46.1 µM]	?	.	.
StopGo reporter	-18%	15%	-13%	0%	-8%	-5%
RE007 growth inh	-1%	18%[3.69 µM]	11%	1%	-11%	0%

(13) COCc1cc(C)nc2sc(C(=O)Nc3ccc(OC(F)(F)F)cc3)c(N)c12
(14) O=C(COc1ccc(Cl)cc1)N1CCN(C(=O)c2ccccc2F)CC1
(15) O=C(Nc1ccc(Cl)c(S(=O)(=O)N2CCOCC2)c1)c1ccncc1
(16) S=C(N/N=C/c1ccc2c(c1)OCO2)NC1CC2CCC1C2 (stereo not drawn)
(17) COc1ccc2nc(C)cc(SCC(=O)NNC(=O)COc3ccc(C)cc3)c2c1
(18) COC(=O)c1cccc(NC(=S)N2CCN(c3ccccc3F)CC2)c1

screen / no.	13	14	15	16	17	18
Cruzain inh Det	-8.1%	.	.	.	0.3%	.
Cruzain noTriton	6%	.	.	.	5%	.
NS1 function inh	.	-1%	.	5%	4%	4%
SARS PLpro yeast	.	-2%	2%	0%	?	1%
LASV entry inh	?	.	28%[46.1 µM]	?	-2%	?
Marburg entry inh	?	-1%[46.1 µM]	4%[46.1 µM]	?	-2%	.
StopGo reporter	-6%	-24%	-25%	12%	-3%	23%
RE007 growth inh	.	6%	-11%	2%	0%[3.69 µM]	1%

(19) Cc1ccc(CNC(=O)C2CCN(S(=O)(=O)c3ccc4[nH]c(=O)ccc4c3)CC2)cc1
(20) O=C1CCC/C1=C\Nc1ccc(Cl)c([N+](=O)[O-])c1
(21) Cc1ccccc1/C=N/NC(=O)CSc1nc2ccccc2o1
(22) Cc1cccc(C#N)c1
(23) CC(NC(=O)[C@H](C)NC(=O)N1CCn2c1nc1ccccc12)c1ccccc1 (stereo partly drawn)
(24) COc1cccc(C(C(=O)NC2CCCC2)N(C(=O)c2csnn2)C2CC2)c1 (stereo not drawn)

screen / no.	19	20	21	22	23	24
Cruzain inh Det	-1.1%	.	-3.5%	3.1%	.	.
Cruzain noTriton	1%	.	-4%	-3%	.	.
NS1 function inh	.	-1%	-6%	.	-1%	-9%
SARS PLpro yeast	.	0%	1%	-4%	-5%	0%
LASV entry inh	-16%[46.1 µM]	-6%	6%	.	.	-15%
Marburg entry inh	.	0%	?	.	.	14%[46.1 µM]
StopGo reporter	-9%	-13%	34%[activator]	-16%	2%	-10%
RE007 growth inh	.	4%	-7%	7%	-10%	23%

(25) Cc1ccn(CCC(=O)N2CCCC(CCC(=O)N3CCN(c4ccccn4)CC3)C2)n1 (stereo not drawn)
(26) N#Cc1ccc(C(=O)OCC(=O)NC(=O)NCc2ccccc2)cc1
(27) Cc1cccc(NC(=S)NC(=O)c2cccs2)n1
(28) C=CCn1c(C(CC)CC(C)(C)O)n[nH]c1=S (stereo not drawn)
(29) O=C(Cc1ccccc1[N+](=O)[O-])c1ccc2c(c1)OCO2
(30) CC1CN(C(=O)COC(=O)c2cc3ccccc3cc2O)CC(C)O1 (stereo not drawn)

screen / no.	25	26	27	28	29	30
Cruzain inh Det	.	.	-0.7%	.	.	.
Cruzain noTriton	.	.	-2%	.	.	.
NS1 function inh	-1%	.	-2%	3%	.	.
SARS PLpro yeast	1%	4%	19%	0%	.	1%
LASV entry inh	-3%	21%	?	.	?	1%
Marburg entry inh	-1%[46.1 µM]	0%	?	.	9%	5%
StopGo reporter	?	-5%	57%[activator]	-14%	42%[activator]	0%
RE007 growth inh	12%	-12%	14%	9%	15%	5%

(31) CCN1C(=O)c2ccccc2Sc2ccc(NC(=O)Nc3cc(C)cc(C)c3)cc21
(32) CCOc1ccc(C(=O)NCC(=O)OCC(=O)N2C(C)CCCC2C)cc1 (stereo not drawn)
(33) CCCOc1c(Cl)cc(C(=O)NC)cc1OC
(34) COc1cc(C(=O)Cc2nc3ccccc3n2C)cc(OC)c1OC
(35) CCCCNC(=S)N(C)/N=C/c1ccc2c(c1)OCO2
(36) CCN(CC)c1ccc(NC(=O)CCc2nc3cccnc3n2Cc2cccs2)c(C)c1

screen / no.	31	32	33	34	35	36
Cruzain inh Det	-2.3%	-20%	.	.	-13%	0.7%
Cruzain noTriton	5%	-1%	.	.	-3%	-5%
NS1 function inh	.	-4%	-1%	-1%	-6%	.
SARS PLpro yeast	.	3%	0%	-5%	?	.
LASV entry inh	0%[46.1 µM]	22%	0%	-26%[46.1 µM]	.	-23%[46.1 µM]
Marburg entry inh	5%[46.1 µM]	-7%	5%	2%[46.1 µM]	.	?
StopGo reporter	?	9%	-10%	-9%	-26%	-11%
RE007 growth inh	.	0%	-3%	-18%	-6%	.

(37) Cc1cc(OC(=O)c2ccc(C(C)(C)C)cc2)c([N+](=O)[O-])c(=O)[nH]1
(38) COc1ccc(C2CC(=O)c3cc(-c4nc(-c5ccc(Cl)cc5)c(C)s4)c(=O)[nH]c3C2)cc1 (stereo not drawn)
(39) Cc1ccc(NC(=O)CC2SCCNC2=O)cc1[N+](=O)[O-] (stereo not drawn)
(40) CCCCc1nnc(NC(=O)C(C)Sc2nc(O)c(Cc3ccccc3)c(=O)[nH]2)s1 (stereo not drawn)
(41) O=C(CCc1ccccc1)NCc1ccc(F)cc1
(42) CC(C)(O)C1=NOC(c2ccccc2)C1 (stereo not drawn)

screen / no.	37	38	39	40	41	42
Cruzain inh Det	.	-3.9%	.	.	.	2.6%
Cruzain noTriton	.	-4%	.	.	.	-17%
NS1 function inh	-55%	.	3%	3%	1%	-4%
SARS PLpro yeast	-3%	.	0%	-1%	5%	0%
LASV entry inh	.	20%[46.1 µM]	2%	0%	1%[46.1 µM]	-14%
Marburg entry inh	.	-22%[46.1 µM]	9%	20%[46.1 µM]	-1%[46.1 µM]	-1%
StopGo reporter	-1%	-7%	21%	-10%	25%	?
RE007 growth inh	-7%	.	-8%	-3%	-22%	0%

(43) CCOc1ccc(N(C)C(=O)CCc2nnc3ccc(N4CCCC4)nn23)cc1
(44) COc1ccc(-c2[nH]ncc2C2N=C(N)Nc3nc4ccccc4n32)cc1 (stereo not drawn)
(45) CCOC(=O)c1ccc(NC(=S)N(CCN(C)C)Cc2cccs2)cc1
(46) COC(=O)C1=C(C)NC(=O)CC1c1ccccc1F (stereo not drawn)
(47) Nc1ccccc1SC1CC(=O)N(c2ccc3c(c2)OCO3)C1=O (stereo not drawn)
(48) COC(=O)c1cccc(NC2CC(=O)N(c3ccc(OC)c(OC)c3)C2=O)c1 (stereo not drawn)
(49) COc1ccc(C(CNC(=O)c2cccc3cccnc23)N(C)C)cc1 (stereo not drawn)
(50) CCOc1ccc(CNC(=O)CN2C(=O)CSc3ccc(S(=O)(=O)N4CCOCC4)cc32)cc1OC

screen / no.	43	44	45	46	47	48	49	50
Cruzain inh Det	.	.	.	1.3%	.	-0.5%	.	1.0%
Cruzain noTriton	.	.	.	5%	.	2%	.	4%
NS1 function inh	2%	.	-4%	6%	11%	-4%	-7%	-19%
SARS PLpro yeast	1%	0%	-2%	0%	1%	-6%	-12%	8%
LASV entry inh	16%[46.1 µM]	?	?	4%	-5%[46.1 µM]	20%	-3%[46.1 µM]	-10%[46.1 µM]
Marburg entry inh	28%[46.1 µM]	?	?	14%	?	9%	-5%[46.1 µM]	.
StopGo reporter	15%	-12%	54%[activator]	.	30%[activator]	7%	0%	5%&-11%
RE007 growth inh	-4%	-12%	7%	9%	-5%	-2%	-9%	-11%

Another view of 2 compounds above:
item | molecule | Cruzain inh Det | Cruzain noTriton | NS1 function inh | SARS PLpro yeast | LASV entry inh | Marburg entry inh | StopGo reporter | RE007 growth inh
43 | CCOc1ccc(N(C)C(=O)CCc2nnc3ccc(N4CCCC4)nn23)cc1 | . | . | 2% | 1% | 16%[46.1 µM] | 28%[46.1 µM] | 15% | -4%
48 | COC(=O)c1cccc(NC2CC(=O)N(c3ccc(OC)c(OC)c3)C2=O)c1 (stereo not drawn) | -0.5% | 2% | -4% | -6% | 20% | 9% | 7% | -2%

Bioassay records: PubChem, National Center for Advancing Translational Sciences (NCATS)

No enrichment for hits; overall some 4.5% were active at least once.
